# Compound activity: PubChem, several laboratories
# YopH PTP inh = YopH tyrosine phosphatase inhibitors, primary screen, biochemical, fluorescence Ex485/Em525; 140,000 tested, 0.16% active; YopH tyrosine phosphatase [Yersinia enterocolitica]; inhibition, %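 (about 10 µM by stock and volumes)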; AID 898, 2007;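 active = inhibition of 50% or more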;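 also: controls were vehicle for no effect and minimum signal wells for full effect; inactives centre near -20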
# Mtb bLac sens = beta-lactam sensitization of Mtb H37Rv, H37Rv. 330,000 tested, 0.27% active. M. tuberculosis H37Rv growth with meropenem, percent inhibition; hits of this screen are not shown here. inhibition, % at 25 µM;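 active = about 74% or more and at least 40 points above the plate without the antibiotic, then above 30% in a dose series; inconclusive = first-round hits that could not be retested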;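 also: growth measured after seven days incubation then overnight dye step; 0% = bacteria only wells and 100% = bacteria with antibiotic; twin plates without the antibiotic show which effects depend on it; some results filed as inactive read as strong as hits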
# RecA splice inh = Mtb RecA intein splicing inhibitors, primary screen, biochemical, fluorescence, HTS; cell-free RecA intein splicing; inhibition, %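 (about 9 µM by stock and volumes)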; 290,000 tested, 0.75% active; AID 2221, 2009; in the data active = inhibition above about 30%; inconclusive = no clear call, values can overlap the other calls;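 also: 0% = vehicle wells and 100% = reference inhibitor control wells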
# Target sequence (P9WHJ3 whole entry, looked up, canonical isoform): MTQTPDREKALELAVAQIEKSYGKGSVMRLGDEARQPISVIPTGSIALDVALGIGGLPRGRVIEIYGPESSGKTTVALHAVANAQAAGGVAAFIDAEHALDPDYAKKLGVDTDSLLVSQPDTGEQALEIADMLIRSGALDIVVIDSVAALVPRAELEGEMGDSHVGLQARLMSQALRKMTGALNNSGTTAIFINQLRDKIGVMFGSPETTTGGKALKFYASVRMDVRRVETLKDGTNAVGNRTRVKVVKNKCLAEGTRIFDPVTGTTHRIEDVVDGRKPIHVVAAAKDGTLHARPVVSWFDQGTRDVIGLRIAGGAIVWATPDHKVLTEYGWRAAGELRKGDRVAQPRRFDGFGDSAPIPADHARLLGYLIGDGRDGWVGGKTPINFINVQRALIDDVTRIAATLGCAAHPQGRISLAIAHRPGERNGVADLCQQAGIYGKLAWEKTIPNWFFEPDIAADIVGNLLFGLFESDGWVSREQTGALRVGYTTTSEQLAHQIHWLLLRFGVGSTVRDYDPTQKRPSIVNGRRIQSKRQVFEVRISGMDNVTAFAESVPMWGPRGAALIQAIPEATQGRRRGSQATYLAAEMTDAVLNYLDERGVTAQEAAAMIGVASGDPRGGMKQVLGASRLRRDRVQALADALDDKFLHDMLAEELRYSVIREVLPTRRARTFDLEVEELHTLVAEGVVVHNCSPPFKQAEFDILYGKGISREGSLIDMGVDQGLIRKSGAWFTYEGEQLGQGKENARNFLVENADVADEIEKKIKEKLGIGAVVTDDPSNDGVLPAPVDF
# Mtb growth = M. tuberculosis H37Rv growth inhibitors, H37Rv strain (AID 1626) | 220,000 tested, 0.95% active | inhibition, % at 10 µM; hits with a dose series show IC50 in µM | M. tuberculosis H37Rv growth inhibition; higher % means a stronger effect;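 active = confirmed in a dose series; inconclusive = inhibition above 80% but not taken into the dose series; inactive = below 80% or under 30% at every dose of the series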;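 also: bacteria incubated seven days before Alamar blue readout; 0% = bacteria only wells and 100% = bacteria with antibiotic wells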
# Arbovirus anti = antivirals against arbovirus infection, primary screen, cell-based, full library, 10K replicate subset; arbovirus infection cell-based antiviral screen; inhibition, % at 10 µM; 200,000 tested, 0.37% active; AID 1251, 2008;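 active = inhibition from about 30%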;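 also: bluetongue infection of BSR cells; cell survival read as ATP light after 72 h; 0% = infected wells without compound and 100% = uninfected wells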
# Arbovirus anti repeat = recorded beside Arbovirus anti, whose call it bears; inhibition, %; measured here: 10K subset replicate screen; many hits read low in the repeat;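 first of two repeat runs on a subset; 0% = infected and 100% = uninfected wells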
# Starred values were filed as active, the others as inactive; ? = inconclusive; . = no result given. A portion of the library; the hit share may differ from the screen's.
SMILES,YopH PTP inh,Mtb bLac sens,RecA splice inh,Mtb growth,Arbovirus anti,others
NC(Cc1c[nH]c2ccc(OCc3ccccc3)cc12)C(=O)O (centres undefined),.,-8,2.7,.,.,
CCS(=O)(=O)N1CCC(C(=O)NCCc2ccc(C)cc2)CC1,-5,6,0.2,4%,9,
COC(=O)c1ccc(NC(=O)C2CCCN2S(=O)(=O)c2ccc(F)cc2)cc1 (centres undefined),-32,39,-4.6,0%,8,
O=C(Nc1ccc(-c2cccc(F)c2)cc1)C1CCCN(Cc2ccccn2)C1 (centres undefined),.,97,5.0,.,.,
COc1ccc(CCN(Cc2cccs2)S(=O)(=O)c2ccc(S(=O)(=O)N3CCCCCC3)cc2)cc1OC,5,5,0.1,-3%,-9,
COc1ccc(OCC(=O)Nc2ccccc2N2CCN(C)CC2)cc1,.,-4,-1.9,.,.,
COc1cc(Br)ccc1NC(=O)c1ccccc1-c1ccccc1C(=O)O,.,14,0.5,.,.,
Cc1occc1-c1nnc(SCC(=O)Nc2ccc(F)cc2)n1C,.,-4,-4.0,.,.,
COCCN(C(=O)CCC(=O)Nc1cccnc1)C(C(=O)NC1CCCCC1)c1ccccc1 (centres undefined),-35,-2,2.2,-10%,1,
CCN1CCN(CCCNC(=O)C(NC(=O)C2CCC(C)CC2)C(C)C)CC1 (centres undefined),-34,.,.,-6%,2,

# The final 3 entries of the part before are carried over, then new ones follow:
SMILES,YopH PTP inh,Mtb bLac sens,RecA splice inh,Mtb growth,Arbovirus anti,others
Cc1occc1-c1nnc(SCC(=O)Nc2ccc(F)cc2)n1C,.,-4,-4.0,.,.,
COCCN(C(=O)CCC(=O)Nc1cccnc1)C(C(=O)NC1CCCCC1)c1ccccc1 (centres undefined),-35,-2,2.2,-10%,1,
CCN1CCN(CCCNC(=O)C(NC(=O)C2CCC(C)CC2)C(C)C)CC1 (centres undefined),-34,.,.,-6%,2,
COc1ccc(CNC(=O)/C=C/c2cc3c(cc2Br)OCO3)cc1,-33,-2,-6.3,2%,-3,
COc1ccc(NC(=O)N2CCC3(CC2)OCCO3)c(OC)c1,.,-4,-0.8,6%,3,
O=C(CN1C(=O)c2ccccc2C1=O)Nc1ccccc1F,-38,-9,0.4,0%,0,
Cc1cccc2cc(COC(=O)c3cccnc3)c(=O)[nH]c12,-56,-3,2.1,-2%,4,
Cc1cccc2cc(C(c3nnnn3CC3CCCO3)N3CCCc4ccccc43)c(=O)[nH]c12 (centres undefined),-15,-2,.,-23%,5,
O=C1c2ccccc2C(=O)N1c1ccc(S(=O)(=O)N2CCN(c3ccccc3)CC2)cc1,-13,-2,-2.5,-13%,-7,
CCN(CC(=O)Nc1c(F)cccc1F)C(=O)c1cc(-c2cccs2)nn1-c1ccccc1,.,-4,0.9,.,.,
Cc1cccc(/C=C2/SC(=O)N(Cc3ccccc3)C2=O)n1,-58,-1,3.1,-3%,-3,
O=C(CCCn1cc([N+](=O)[O-])cn1)N1CCCCC1,.,4,1.3,-3%,2,
O=C(N/N=C/c1cccc(F)c1)c1c(O)c2ccccc2[nH]c1=O,-34,7,-2.4,?,7,
COc1ccccc1NS(=O)(=O)c1ccc2c(c1)NC(=O)CC(=O)N2,.,0,0.6,.,.,
CCCn1c(CNC(=O)c2cccs2)nc2ccccc21,-5,1,6.1,9%,-3,Arbovirus anti repeat=-5
CCOc1ccc(OCC)c(NC(=O)CSCC(=O)O)c1,-5,3,2.2,-7%,-1,
O=C(NC1(C(F)(F)F)N=C2SCCN2C1=O)c1ccccc1F (centres undefined),.,5,-1.4,-4%,.,
COc1ccc(N(C(C)C(=O)N(C)Cc2ccccc2)S(C)(=O)=O)cc1 (centres undefined),.,-4,0.5,.,.,
O=C(CN1C(=O)c2ccccc2S1(=O)=O)N1CCCCC1,.,0,-2.1,.,.,
CCOc1ccc(/C=N/OCC(=O)Nc2cc(C)on2)cc1,-38,91,-0.4,56%,2,
CC(C)N(C)S(=O)(=O)c1ccc(NC(=O)CSC(=S)N2CCCC2)cc1,.,-1,0.0,.,.,
Cc1ccc(O)c(-c2cc(-c3ccccc3F)[nH]n2)c1,2,76,1.5,9%,6,
COC(=O)c1ccc2c(c1)NC(=O)C(N1CCCC1)S2 (centres undefined),-29,-2,.,-1%,2,
Cc1nn(-c2ccccc2)c(Cl)c1/C=N/Nc1nc2ccccc2n1C,-30,95,4.3,68%,-4,
O=C(O)c1cccc(NS(=O)(=O)c2ccc3c(c2)OCCCO3)c1,.,-4,-1.3,-2%,7,
COc1ccccc1C(C(=O)NC1CCCCC1)N(C(=O)c1csnn1)C1CC1 (centres undefined),.,-4,-2.8,.,.,
CCC(C(=O)O)n1cnc2scc(-c3ccc(C)c(C)c3)c2c1=O (centres undefined),.,1,0.0,.,.,
O=C(NCCN1CCCC1)C1(S(=O)(=O)c2ccc(Cl)cc2)CC1,-35,-12,-1.5,0%,12,
O=C(c1ccc(F)cc1)N1CCN(Cc2ccccc2Br)CC1,-19,3,-0.3,5%,7,
CCOC(=O)c1cc2c(=O)n3ccccc3nc2n(CC2CCCO2)c1=NC(=O)/C=C/c1ccccc1 (centres undefined),.,41,.,-1%,-11,
Cc1cc(C)c(C#N)c(SCc2cn3ccccc3n2)n1,-11,5,1.0,-4%,0,
CCN(CC)CCOC(=O)c1cc2cc(COC)ccc2o1,-7,7,-0.4,-1%,6,
CC(C)CNC(=O)c1cccc(NC(=O)COc2ccc([N+](=O)[O-])cc2)c1,.,6,-0.7,-3%,-1,
COc1cccc(NC(=O)Cc2nnc(SCC(=O)NC3=NCCS3)n2C)c1,.,-6,-0.2,.,.,
NNC(=S)NC1CCCCC1,.,99,4.1,0%,18,
Cn1c(SCC(=O)N/N=C/C=C/c2ccccc2[N+](=O)[O-])nc2ccccc21,-20,8,-4.6,5%,-7,
COc1cccc2oc3cc(C#CC4(O)CCCCC4)ccc3c(=O)c12,.,96,0.8,.,.,
CCC(=O)Nc1nonc1-c1nc2ccccc2n1N(C(=O)CC)C(=O)CC,-38,1,1.7,3%,2,
CCC(C)(C)NC(=O)C(c1ccc(OC)cc1)N(Cc1cccs1)C(=O)CCC(=O)Nc1cc(C)on1 (centres undefined),-75,-3,.,-1%,-9,
Cc1ccc2c(c1)C(c1ccncc1)=NNC(c1ccccc1)=N2,.,1,7.1,-4%,-8,
CCCCn1c(=O)[nH]c(=O)c2c1nc(COC(=O)c1c(C)noc1C)n2CCC,-9,-8,-0.1,-1%,9,
Cc1cc(C)n(C(=O)c2ccccc2[N+](=O)[O-])n1,-18,-5,-1.8,6%,-2,
Cc1ccnc2nc(C(=O)OCC(=O)Nc3ccccc3C(C)(C)C)nn12,.,-1,0.0,-6%,-2,
COc1ccc(C)cc1NC(=O)c1ccccc1N(C)S(=O)(=O)c1ccccc1,.,-15,3.6,.,.,
CCCN(CCC)S(=O)(=O)c1ccc(C(=O)Nc2ccc(S(=O)(=O)Nc3nnc(CC)s3)cc2)cc1,.,-3,5.5,.,.,
CCOc1[nH]n(-c2ccc(Cl)cc2)c(=O)c1C=Nc1ccc(OC)cc1,-21,?,.,-1%,-1,
COC(=O)Cn1ncc(N2C3CC(CC(C)(C)C3)C2C)c(Cl)c1=O (centres undefined),-29,5,0.4,-5%,-2,
CC(=O)N1CCN(S(=O)(=O)c2cccc(C(=O)Nc3ccccc3N3CCCC3)c2)CC1,.,-9,-3.0,.,.,
Fc1ccc(CSc2nnc(-c3cccs3)o2)cc1,-34,19,5.9,47%,-11,
CCCNC(=O)CN1C(=O)COc2ccc(S(=O)(=O)N3CC(C)CC(C)C3)cc21 (centres undefined),.,-4,2.0,.,.,
Cc1ccc(OCC(=O)Nc2ccc(C(N)=O)cc2)cc1,.,-5,-1.2,.,.,
Cc1cccc(OCc2n[nH]c(=S)o2)c1,-21,1,0.0,-5%,8,
OCCC1CN(Cc2ccccc2OC2CCCC2)CCN1Cc1ccsc1 (centres undefined),.,-3,1.4,8%,-2,
# New compounds follow:
SMILES,YopH PTP inh,Mtb bLac sens,RecA splice inh,Mtb growth,Arbovirus anti,others
C=CCN(CC=C)c1nc2ccccc2nc1C(C#N)C(=O)OC(C)C (centres undefined),-40,0,-63,3%,-7,
CCN(CCCNC(=O)Cn1ncc2c([nH]c3ccc(C)cc32)c1=O)Cc1ccccc1,.,-1,-0.1,.,.,
CCCCN=C(NNc1ccc(Br)cc1)C(=O)OCC,-4,97,-1.6,?,-35,
O=C(c1ccc(N2CCCC2=O)cc1)N1CCN(c2ccccc2)CC1,-38,-6,1.1,-7%,0,
COc1ccc(C(=O)COC(=O)CSCc2c(C)noc2C)cc1OC,-21,-10,-0.2,-3%,6,
CCOC(=O)c1ccc(NC(=O)CN2C(=O)C3C4C=CC(C4)C3C2=O)cc1 (centres undefined),-21,-6,1.1,-11%,5,
CCn1c(CNC(=O)c2ccccc2F)nnc1SCC(=O)NC1CCCCC1C (centres undefined),.,-9,.,2%,6,
Cc1c(Cl)cccc1Nc1ncccc1C(=O)OCC(O)CO (centres undefined),.,0,0.9,.,.,
COc1ccc(N2CCN(C(=O)Cc3ccc(S(=O)(=O)N4CCOCC4)s3)CC2)cc1,.,-2,1.5,5%,19,
CCOc1ccc(S(=O)(=O)NCCCN2CCOCC2)cc1,-2,-2,-1.8,11%,2,
CCn1c(SCC(=O)Nc2ccc(C)cc2)nc2nc3c(cc2c1=O)CCCC3,-21,0,0.9,0%,-5,
CC1CCN(c2ccc3nnc(CCC(=O)N4CCCCC4)n3n2)CC1,.,5,-1.8,.,.,
Cc1ccc(C(=O)N2CCCC2)cc1S(=O)(=O)N1CCCCC1,.,0,3.0,.,.,
Cc1ccc(NC(=O)COC(=O)CCc2ccc(S(=O)(=O)N3CCOCC3)cc2)c(C)c1,.,6,-0.2,2%,2,
CCOC(=O)N1CC=C2C(C#N)=C(N)C(C#N)(C#N)[C@H](c3cccs3)C2C1 (some centres undefined),8,-1,11,-1%,-9,
CCCNC(=O)c1ccc(N2CCC3(CC2)CC(c2cccc(Br)c2)=NO3)c(NC(=O)c2c(Cl)cccc2Cl)c1,.,14,-1.5,.,.,
O=c1c2cc(Cl)ccc2[nH]c(=S)n1Cc1ccco1,-13,?,0.5,-5%,11,
O=C(NCc1ccco1)c1cccc(S(=O)(=O)N2CCCCC2)c1,41,5,2.6,-7%,6,
Cn1nccc1/C=N\NC(=O)c1ccc(Cl)cc1,.,-10,-2.9,.,.,
CCOc1cccc(=O)c2c(C)n(CC(=O)c3ccccc3)c(C)c12,.,0,0.7,-4%,0,
Cc1cc(OCC(=O)NCc2ccccn2)cc(C)c1Br,-27,-4,1.4,9%,-2,
O=c1ccn(Cc2ccccc2)c2ccccc12,.,-1,-1.3,-6%,.,
O=C(NCCCN1CCCCC1)c1ccc2c(c1)NC(=O)C(N1CCOCC1)S2 (centres undefined),-51,-3,1.7,-6%,6,
COc1ccccc1N(CC(=O)NC1CCCC1)C(=O)c1oc(C(C)(C)C)cc1C,.,6,8.9,-4%,-10,
Cc1sc2ncn(CC(=O)NCC(=O)N(C)C3CCCCC3)c(=O)c2c1C,-18,-8,-0.2,-4%,3,
Cc1ccc(S(=O)(=O)N2CCOC2CNC(=O)C(=O)NCCCN2CCOCC2)cc1 (centres undefined),.,-4,-2.0,.,.,
COc1ccc(CCNC(=O)c2n[nH]c3ccccc23)cc1,.,4,-0.5,6%,0,
O=C(NC1CC1)C1CCN(C2CCN(C(=O)c3c(F)cccc3Cl)CC2)CC1,.,-6,-2.6,.,.,
COc1ccc(C(=O)N2CCN(CC(=O)N3CCOCC3)CC2)cc1,.,1,0.7,.,.,
COc1ccc(OC)c(CNC(=O)CCc2nc(-c3cccs3)no2)c1,0,-7,-0.3,.,-6,Arbovirus anti repeat=-2
O=C(NN1C(=O)c2ccc3c4c(ccc(c24)C1=O)CC3)c1ccc(Br)cc1,-42,-1,1.8,-18%,5,
COc1ccc(C2C(C(=O)c3ccco3)=C(O)C(=O)N2CCc2ccccc2)cc1OC (centres undefined),-49,-4,.,-11%,2,Arbovirus anti repeat=-3
CCOC(=O)c1ccc(NCC(O)COc2ccccc2)cc1 (centres undefined),-16,15,1.9,20%,5,
CCCn1c(-c2cccc(F)c2)nc2c1c(=O)[nH]c(=O)n2Cc1ccccc1,.,-1,-0.4,.,.,
COc1cc(C(=O)Nc2ccc(C(C)=O)cc2)c(Br)c(OC)c1OC,-18,-2,2.0,-9%,13,
CC1(C)Cc2c(cnn2-c2ccc(F)cc2)C(NC(=O)CCN2CCCCC2=O)C1 (centres undefined),.,-4,0.4,.,.,
CCc1ccc(NC(=O)Cn2c(=O)n(CCCC(=O)NCc3ccco3)c(=O)c3ccccc32)cc1,-5,7,-2.8,0%,6,
